KCNQ2 block = KCNQ2 potassium channel inhibitors, primary screen, cell-based, CHO-K1, FluxOR thallium flux, B-score (AID 2156) | actives 1.1% (n = 310,000) | O88943 | 20 min; hits give low values; only compounds with negative scores are shown here; some inactives read as strong as hits | B-score at 10 µM;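 active means fluorescence ratio B-score at most minus 3 library SDs, with starting brightness B-score within 2 library SDs, cut at about -5.5 in these data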
Target sequence (O88943 whole entry, looked up): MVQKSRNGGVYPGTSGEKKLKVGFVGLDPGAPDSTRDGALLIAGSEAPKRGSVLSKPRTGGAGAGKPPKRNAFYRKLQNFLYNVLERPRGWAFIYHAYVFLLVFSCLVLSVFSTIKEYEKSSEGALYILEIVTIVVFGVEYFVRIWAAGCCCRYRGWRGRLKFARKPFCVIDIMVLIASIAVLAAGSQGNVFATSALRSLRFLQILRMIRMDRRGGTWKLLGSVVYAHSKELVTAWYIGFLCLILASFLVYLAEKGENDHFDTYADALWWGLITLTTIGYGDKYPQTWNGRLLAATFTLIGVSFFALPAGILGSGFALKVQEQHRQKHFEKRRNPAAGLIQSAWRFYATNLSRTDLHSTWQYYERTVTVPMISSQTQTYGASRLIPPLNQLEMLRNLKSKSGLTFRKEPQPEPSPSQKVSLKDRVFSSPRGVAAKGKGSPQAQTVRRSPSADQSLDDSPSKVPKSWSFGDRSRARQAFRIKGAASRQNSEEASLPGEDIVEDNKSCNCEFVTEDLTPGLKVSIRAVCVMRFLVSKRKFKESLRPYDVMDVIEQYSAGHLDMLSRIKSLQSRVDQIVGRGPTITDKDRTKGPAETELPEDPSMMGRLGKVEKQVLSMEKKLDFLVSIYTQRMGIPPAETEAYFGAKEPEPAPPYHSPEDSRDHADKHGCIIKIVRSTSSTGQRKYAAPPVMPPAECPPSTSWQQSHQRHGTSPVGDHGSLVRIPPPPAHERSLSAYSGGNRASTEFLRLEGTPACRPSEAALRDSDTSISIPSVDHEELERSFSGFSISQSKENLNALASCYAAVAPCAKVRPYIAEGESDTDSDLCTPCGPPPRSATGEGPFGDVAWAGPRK
KCNQ2 block baseline = also measured in KCNQ2 block; calls as there; B-score; measured here: initial fluorescence intensity artifact check;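 brightness before thallium and not channel activity; 0 = typical well and far values either way flag optical interference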
Active calls of the source: *; i = inactive. Some of the compounds tested; rates above refer to the full screens.

KCNQ2 block	KCNQ2 block baseline	smiles
i	0.4	O=C(CSCc1ccccc1Cl)NCCSc1ccccn1
i	-0.23	Cc1cccc(OCc2nc3c4c(ncn3n2)-c2ccccc2CC42CCCC2)c1
i	0.14	COc1ccc(CN2CCN(C)CC2)cc1OCc1ccccc1
i	1.3	O=C(COC(=O)c1ccc(Br)o1)NCCCc1ccccc1
i	0.02	CCn1c(=O)cc(SCC(=O)N2CCN(C)CC2)c2ccccc21
i	-1.6	Clc1ccc(SCCOCCN2CCOCC2)cc1
i	0.62	C/C(=N\N1CCN(Cc2ccccc2Cl)CC1)c1ccc([N+](=O)[O-])cc1
i	4.8	O=c1c(Cc2ccccc2)c(O)ccn1C1CCCCCCC1
i	4	Cc1ccc(C)c2[nH]c(=O)c(C(c3nnnn3Cc3ccco3)N3CCc4ccccc4C3)cc12 (configuration not stated)
i	-1.8	Cc1cccc(N(Cc2cc(=O)[nH]c3ccccc23)C(=O)CCl)c1

New compounds follow:
KCNQ2 block	KCNQ2 block baseline	smiles
i	0.17	CC(=O)Nc1ccc(S(=O)(=O)N2CCN(C(=O)N3CCCC3)CC2)cc1
i	-0.67	COc1ccc(N(C(=O)c2ccccc2C)S(=O)(=O)c2cccs2)cc1
i	-1.2	CN1CCN(C(=O)CCCOc2cc(=O)n(C)c3ccccc23)CC1
i	-0.03	Cc1nnc(SCC(=O)N2CCC(C(=O)Nc3nccs3)CC2)n1Cc1ccccc1
i	1.3	CN(C)c1ccc(C2C=C(c3ccc(Cl)cc3OC(F)F)Nc3ncnn32)cc1 (configuration not stated)
i	-0.57	CCOc1cc(C#N)ccc1OCC(=O)N1CCc2ccccc2C1
i	-0.94	CCOc1cc(CN2CCCC(N3CCc4ccccc4C3)C2)ccc1O (configuration not stated)
i	0.05	COc1ccc(S(=O)(=O)N2CCCC2)c2ccccc12
i	0.22	O=C(NCc1ccncc1)C(=O)NCC(c1ccccc1)c1ccccc1
i	-1.2	CCC(C)Nc1nc(OCC(F)(F)F)nc(OCC(F)(F)F)n1 (configuration not stated)

(further entries)
KCNQ2 block	KCNQ2 block baseline	smiles
i	-1.1	CCCCCC1CC(/C(C)=N/NC(N)=O)OC1=O (configuration not stated)
i	0.38	Cc1ccc2c(c1)cc(CN(Cc1ccco1)C(=O)COc1ccccc1)c1nnnn12
i	0.56	CCCCCC(=O)NNC(=O)Cc1ccc([N+](=O)[O-])cc1
i	-1.5	CN(CC(=O)O)S(=O)(=O)/C=C/c1ccccc1
i	-0.92	O=S(=O)(NCc1ccccc1)c1ccc(Br)s1
i	-2.2	CN(C)NC(=O)c1ccsc1NC(=O)c1ccc(S(=O)(=O)N2CCCC2)cc1
i	-1.3	CC(C)(C)c1ccc(-c2nc(N)nc(N)n2)cc1
i	-2.1	S=c1[nH]nc(Nc2cccc(Cl)c2)s1
i	-1.9	Cc1cccc2[nH]c3c(N4CCC5(CC4)OCCO5)ncnc3c12
i	-1.8	O=C(CN1C(=O)c2cccnc2Oc2ccc(Cl)cc21)NC1CCCCCC1

Later entries
KCNQ2 block	KCNQ2 block baseline	smiles
i	-0.62	CCOc1ccc(N2C(=O)CC(N(C)Cc3ccccc3)C2=O)cc1 (configuration not stated)
i	0.52	Cc1ccccc1N1CC(C(=O)Nc2nnc(SCCN3CCOCC3)s2)CC1=O (configuration not stated)
i	0.84	CCOc1ccc(CNC(=O)C2CCN(c3nnc(C)c4c(C)n(-c5ccc(C)cc5)nc34)CC2)cc1
i	0.03	Clc1ccc(OCCSc2ncccn2)cc1
i	-0.07	Cc1ccc(S(=O)(=O)NNC(=S)Nc2cccc(F)c2)cc1
i	-0.35	COc1ccccc1C(=O)N/N=C/c1ccc2c(c1)OCO2
i	-2.8	O=C1CC(=O)Nc2cc(S(=O)(=O)N3CCN(c4cccc(C(F)(F)F)c4)CC3)ccc2N1
i	0.88	O=C(CN(C(=O)c1ccc(Cl)cc1Cl)N1C(=O)C2C3C=CC(C3)C2C1=O)c1ccc(F)cc1 (configuration not stated)
i	0.24	Cc1cc(C)c(O)c(-c2cc(C(=O)Nc3ccc(S(=O)(=O)N4CCOCC4)cc3)[nH]n2)c1
i	-0.03	COc1ccc(OC)c(NC(=O)CSc2nccn2Cc2ccco2)c1

Continuation.
KCNQ2 block	KCNQ2 block baseline	smiles
i	0.86	CSC1=N/C(=C/c2cccnc2)C(=O)N1Cc1ccccc1
i	0.43	CC(Sc1nncn1C)C(=O)Nc1nnc(-c2ccccc2)s1 (configuration not stated)
i	1.3	CC(=O)NC(C)(C)C1CC=C(C)/C(=N\O)C1 (configuration not stated)
i	0.11	CCOc1ccc2c(c1)C(c1ccccc1)=NNC(c1ccccc1)=N2
i	0.07	C=CCNC(=S)N/N=C/c1ccc(C)cc1C
i	1.1	CC(C)(C)c1cc(-c2csc(Nc3ccccc3)[n+]2Cc2ccc(C(=O)O)cc2)cc(C(C)(C)C)c1O
i	0.58	Cc1cccn2c(NC(=O)c3ccccc3F)c(-c3ccccc3)nc12
i	0.7	O=C(Nc1ccc(S(=O)(=O)NCC2CCCO2)cc1)C1CC(=O)N(c2ccccc2)C1 (configuration not stated)
i	0.76	CCCNC(=S)N1CCC(NC(=O)c2ccc(OC)cc2)CC1
i	-0.12	COc1ccccc1-n1cc(C(=O)N2CCCC(CO)(Cc3ccccc3C)C2)cn1 (configuration not stated)

Next part:
KCNQ2 block	KCNQ2 block baseline	smiles
i	0.16	O=C(CN1/C(=C(/O)c2ccccc2)C(=O)c2ccccc2S1(=O)=O)c1ccccc1
i	0.66	O=S(=O)(c1ccccc1)N1CCc2ccccc2C1
i	0.26	O=C(Nc1ccc(O)c2c(=O)cc(-c3ccccc3Cl)oc12)c1ccccc1Cl
i	4	Cc1ccc(SCC(=O)Nc2ccc3c(c2)C(=O)NC3=O)cc1
i	0.14	CCOC(=O)C1CCN(C(=O)Cc2cccc3ccccc23)CC1
i	-0.97	Cc1ccc(N(CC(=O)Nc2cc(C)cc(C)c2)S(=O)(=O)c2c(C)noc2C)cc1
i	0.35	COc1ccc(C(=O)/C=C/C(=O)N(CC(=O)NC2CCCCC2)Cc2cccs2)c(O)c1
i	-1	Cc1ccc(C(=O)NC2CCN(CC(=O)Nc3ccccc3Cl)CC2)cc1
i	0.3	CCC1(C)Cc2ccccc2-c2nc(SC)[nH]c(=O)c21 (configuration not stated)
i	1.2	O=C(c1ccc([N+](=O)[O-])cc1)N1CCN(C(=O)C2CCCCC2)CC1

Further records follow.
KCNQ2 block	KCNQ2 block baseline	smiles
i	2.3	COc1ccccc1NC(=O)Nc1nnc(CC(=O)Nc2cccc(C)c2)s1
i	-0.44	NS(=O)(=O)c1ccc(NC(=S)Nc2nn(Cc3ccc(Cl)cc3Cl)cc2Cl)cc1
i	0.89	C=CC[n+]1c(-c2ccc(OC)c(OC)c2)csc1NNC(=O)Nc1ccccc1
i	0.66	O=C1CSC(c2ccccc2)N1CCc1ccccc1 (configuration not stated)
i	-2	CN(C)C(=O)c1cc(C(=O)c2ccc(C(F)(F)F)cc2)c[nH]1
i	1.1	COc1ccc(CCCC(=O)NCCc2ccccc2)c(C)c1
i	0.37	Cc1ccccc1C(=O)c1cccn1CC(=O)NCc1ccccc1
i	0.86	Cc1ccc(NC(=O)C(C)Sc2nnc(C)n2C)cc1 (configuration not stated)
i	0.74	COc1ccc(-c2nn(-c3ccccc3)cc2/C=C/C(=O)OCC(=O)Nc2ccc(C#N)cc2)cc1
i	-0.52	COc1ccc(S(=O)(=O)NCCOc2ccccc2)cc1C

New compounds follow:
KCNQ2 block	KCNQ2 block baseline	smiles
i	0.12	Cc1ccc(-c2cc(C(=O)N/N=C/C=C/c3ccco3)c3ccccc3n2)cc1C
i	2.8	Nc1ncnc2nc(SCC(=O)N3CCN(c4ccccc4)CC3)[nH]c12
i	-0.02	CCOC(=O)c1ccccc1NC(=O)[C@@H]1CCCN1C(=O)OC(C)(C)C
i	-0.32	CC12CC(c3ccccc3O1)N(C(=O)c1ccco1)C(=S)N2c1ccc(F)cc1 (configuration not stated)
i	-0.15	CC1(C)Cc2c(C#N)c(N)sc(=S)c2CS1
i	0.39	O=C(CCn1c(=O)c2ccccc2n(Cc2ccccc2)c1=O)NC1CCN(Cc2ccccc2)CC1
i	-0.5	O=C(CCCN=C1NS(=O)(=O)c2ccccc21)OCC(=O)c1ccc(F)c(F)c1
i	-1.6	CC(C)(C)c1cc(C(=S)N2CCN(CCO)CC2)cc(C(C)(C)C)c1O
i	1.2	COc1ccc(-c2cc(C(F)(F)F)n3nc(C(=O)O)nc3n2)cc1
i	-0.36	CC(C)c1cc(C(=O)NC2CCCCC2)no1

(next part)
KCNQ2 block	KCNQ2 block baseline	smiles
i	-2	COc1ccc(-c2ccc(OC)cc2C(=O)O)cc1
i	-1.2	Cc1ccccc1C(=O)NC(=S)Nc1ccc(Cc2ccncc2)cc1
i	0.4	CCC(C)NC(=O)Cn1c(=O)n(-c2ccc(OC)cc2)c(=O)c2ccc(C(=O)NCc3ccc(C)cc3)cc21 (configuration not stated)
i	-0.08	CCS(=O)(=O)N1Cc2ccccc2CC1C(=O)Nc1cccc(C)c1 (configuration not stated)
i	1.4	CC(C)(C)C(=O)Nc1ccc(S(=O)(=O)Nc2ccccn2)cc1
i	-0.68	CCNc1nc(N2CCOCC2)nc(N(c2ccccc2)c2ccccc2)n1
i	-0.26	O=C(Nc1ccccc1)c1ccccc1OCC(O)CN1C(=O)c2ccccc2S1(=O)=O (configuration not stated)
i	-0.82	CC(=O)Nc1c(C(=O)N2CCCCCC2)cnn1-c1ccccc1Cl
i	-1.1	CCOC(=O)C1CCCN(Cc2ccccc2Cl)C1 (configuration not stated)
i	0.96	CC(=O)c1ccc(OC(=O)CCc2nc3ccccc3s2)cc1

Following part:
KCNQ2 block	KCNQ2 block baseline	smiles
i	0.12	O=C1Nc2ccccc2SC(c2ccccc2)C1O (configuration not stated)
i	0.68	Fc1ccccc1NC(=S)N(CCN1CCCCCC1)Cc1cccs1
i	2.2	CC1CC(C)CN(S(=O)(=O)c2ccc(C(=O)NN3CCOCC3)cc2)C1 (configuration not stated)
i	-0.27	c1cncc(CSc2nnc3ccc(-c4ccncc4)nn23)c1
i	2.4	O=C(O)c1nn(CC(=O)N2CCC(Cc3ccccc3)CC2)c(=O)c2ccccc12
i	8.5	CC1=CC2=NC(=O)/C(=C/c3coc4ccc(Cl)cc4c3=O)C(=N)N2O1
i	0.54	O=C(CCS(=O)(=O)c1ccccc1)Nc1nccs1
i	0.44	CC(O)c1nc2ccc(C(=O)O)cc2[nH]1 (configuration not stated)
i	0.79	COc1ccccc1C(=O)Nc1ccncc1
i	0.55	Nc1nonc1-n1nnc(C(=O)N/N=C/c2ccccc2Br)c1CN1CCCC1

Later entries.
KCNQ2 block	KCNQ2 block baseline	smiles
-8.8*	-0.26*	COc1ccccc1C(c1nnnn1Cc1ccccc1)N1CCN(c2nc3ccccc3s2)CC1 (configuration not stated)
i	0.68	COCCCNC(=S)N/N=C/c1ccc(O)cc1O
i	-0.21	CC(C)Nc1nc(-c2cccnc2)nc(-c2ccc(Cl)cc2)c1C#N
i	0.44	O=C(COc1ccc(F)cc1)N1CCC(c2ccccc2)C1 (configuration not stated)
i	0.12	COC(=O)CCC(=O)c1ccn(S(=O)(=O)c2ccccc2)c1
i	-0.48	COc1cc2nc(COc3ccccc3[N+](=O)[O-])oc(=O)c2cc1OC
i	1.1	N#Cc1ccccc1Sc1ccccc1C(=O)Nc1ccc2ccccc2c1
i	0.64	CCCn1nc(NC(=O)COC)c2cc3cccc(C)c3nc21
i	8.8	CCCNC(=O)Cn1c(=O)/c(=C\c2ccc(-c3ccc([N+](=O)[O-])cc3)o2)s/c1=C\C(=O)C(C)(C)C
i	0.01	CC(C)(C)Nc1nc(Oc2ccc(=O)[nH]n2)nc(N2CCOCC2)n1

(cont.)
KCNQ2 block	KCNQ2 block baseline	smiles
i	1.2	Cc1ccc(OCCCCNC(C)(C)C)c([N+](=O)[O-])c1
i	0.25	CCc1nnc(NC(=O)CSc2nnc(Cc3ccccc3)n2Cc2ccccc2)s1
i	-0.29	FC(F)(F)c1ccc(-c2nnc(-c3cccnc3)o2)cc1
i	-1.7	O=C(NCc1cccnc1)c1cccn1-c1ncc(C(F)(F)F)cc1Cl
i	-1.7	CCCCC(Sc1nc(N)c(NC(=O)c2ccc(OCC)cc2)c(=O)[nH]1)C(=O)O (configuration not stated)
i	-0.19	O=C(O)C1C2C=CC(C2)C1C(=O)NCCc1ccncc1 (configuration not stated)
i	0.29	O=C(CN1C(=O)C2C3C=CC(C3)C2C1=O)N1CC(=O)N(CCc2ccccc2)C(=O)C1 (configuration not stated)
i	-0.04	COc1ccc(-c2nc3ccccc3c(=O)n2CCCN2CCOCC2)cc1
i	0.47	Cc1ccc(-c2nnc(N3CCOCC3)c3ccccc23)cc1S(=O)(=O)NCC1CCCO1 (configuration not stated)

Screening data as filed in PubChem.
